Bioassay records as filed in PubChem BioAssay.
TAR Tat displ = HIV-1 TAR-Tat binding disruption; HIV-1 TAR RNA, Tat peptide displacement FRET; stronger effect = higher value; z-score (test concentration not listed); 100,000 tested, 0.6% active;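 also: score is relative to mean and SD of negative controls; some compounds called inactive have numbers as strong as hits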
CDC25B CDK2 inh = human CDC25B-CDK2/CyclinA binding inhibition; HTRF CDC25B-CDK2/CyclinA binding, anti-His/anti-Flag; stronger effect = higher value; z-score (no concentration beside the values); 94,000 tested, 0.72% active; P30305+P24941;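 also: score is relative to mean and SD of negative controls; strong numbers were not always called active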
Starred values were filed as active, the others as inactive; / = not tested or not shown.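 The calls were made as follows: active = z-score from 3 up in half or more of its runs; inactive = the rest.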

Each structure is followed by: TAR Tat displ | CDC25B CDK2 inh
COc1ccc(NS(=O)(=O)c2ccc3c4c(cccc24)C(=O)S3)cc1
→ 0.35 | -1.3
O=C(CN1N=NC2C(=O)N(c3ccc(Br)cc3)C(=O)C21)Nc1ccccc1 (stereo not drawn)
→ 1.9 | /
O=C(O)CC(Cc1ccccc1)C(=O)O (stereo not drawn)
→ 2.4 | -1.6
CC(C)CCC(O)(c1ccccc1)C(CN1CCOCC1)c1ccccc1 (stereo not drawn)
→ 0.85 | 0.67
CCS(=O)(=O)c1cccc(C(=O)Nc2sc3c(c2C(N)=O)CCC3)c1
→ 0.71 | /
COC(=O)C(NC(=O)CCc1nnc2ccc(N3CCC(C)CC3)nn12)C(C)C (stereo not drawn)
→ -0.55 | /
CSc1ccc(-c2noc(C3CCCN(S(=O)(=O)c4ccc(Cl)cc4)C3)n2)cc1 (stereo not drawn)
→ 2.5 | /
CC1(C)CC(=O)c2c(SCCOC(=O)Nc3ccc(OC(F)(F)F)cc3)sc(C#N)c2C1
→ / | -1.8
Cn1cnnc1Sc1c(-c2ccccc2)c2ccccc2[nH]c1=O
→ -1.3 | -1.9
CCC(C)(C(=O)NC1CCCC1)N(Cc1ccco1)C(=O)c1ccccn1 (stereo not drawn)
→ 0.76 | -1
S=C(NCc1ccco1)N/N=C/c1cccnc1
→ / | -1.3
O=c1c(S(=O)(=O)c2ccc(Cl)cc2)c[nH]c2ccc(F)cc12
→ -1.2 | 0.19
CCOC(=O)N1CCN(C(=O)C2(c3cccs3)CCOCC2)CC1
→ 0.71 | /
Cc1nn(-c2nc3ccccc3o2)c2c1C(c1ccc(Cl)cc1)CC(=O)N2 (stereo not drawn)
→ 0.78 | /
COc1ccccc1CNc1nc(=S)[nH]c2cc(OC)c(OC)cc12
→ / | -1.3
O=C(CCc1nc(CSc2nc3ccccc3s2)no1)Nc1cccc(Br)c1
→ 2.3 | /
O=C(CN1C(=O)COc2ccc(S(=O)(=O)N3CCOCC3)cc21)NCc1ccco1
→ 0.68 | -1.5
CCCc1sc(NC(=O)c2ccccc2)nc1-c1ccc(C)c(C)c1
→ / | -0.4
O=C(CSc1nnc2n1CCCN2C(=O)Nc1ccccc1)c1ccc([N+](=O)[O-])cc1
→ / | -0.11
Cn1c2c(c(=O)n(C)c1=O)C(c1ccc(C(F)(F)F)cc1)C1=C(CCCC1=O)N2 (stereo not drawn)
→ / | -2
O=C(COC(=O)CCc1c[nH]c(=O)[nH]1)Nc1cccc(Cl)c1
→ 1.2 | -1.9
O=C(c1ccc2c(c1)OCO2)N1CCC(c2nc3c(nnn3Cc3ccc(F)cc3)c(=O)[nH]2)CC1
→ -1.8 | 0.06
COc1ccc(C)cc1-n1nnc(-c2nc(-c3cccs3)no2)c1N
→ 1.5 | /
CC1=C(c2ccc(F)cc2)S(=O)(=O)N=C1Nc1ccccc1C
→ 0.42 | /
Cc1ccccc1-c1noc(CSc2nc3ccccc3[nH]2)n1
→ -0.29 | 0.13
CCOC(=O)c1nnn(-c2ccc(F)c(Cl)c2)c1NC(=O)c1cccs1
→ / | -1.5
Cc1nc2c(c(C)c1CCC(=O)N1CC(C)CC(C)C1)c(=O)n(C)c(=O)n2C (stereo not drawn)
→ 0.38 | 0.2
Nc1c(C(=O)N2CCOCC2)oc2ccccc12
→ 0.69 | -0.8
CCN1CCN(C(=O)C2CCCN(c3nnc(N4CCCC4=O)s3)C2)CC1 (stereo not drawn)
→ -1.4 | /
c1ccc(-c2nc3sc(N4CCCC4)nn3c2-n2cccc2)cc1
→ -0.44 | /
C#CCN1C(=O)C(O)(CC(=O)c2ccc(N(C)C)cc2)c2ccccc21 (stereo not drawn)
→ 0.27 | -1
Cc1ccc(O)c(Nc2cc(-c3ccccc3)nc(C)n2)c1
→ 1.1 | -0.72
Cc1c(C(=O)N2CCCC2)oc2c1-c1nn(CC(=O)NCc3cccs3)cc1CC2
→ 3 | /
CCOC(=O)c1c(NC(=O)CSc2nc3c(c(=O)[nH]2)CCCC3)sc2c1CCC(C)C2 (stereo not drawn)
→ -0.49 | -2.3
CC1=C(C(=O)Nc2ccc(CC(=O)NC3CCC(C)CC3)cc2)SCCO1 (stereo not drawn)
→ 0.77 | /
Cc1ccc(NS(=O)(=O)c2ccc(/C=C/c3onc(C)c3[N+](=O)[O-])s2)cc1C
→ 0.84 | /
COC(=O)c1ccc(C2SCC(=O)N2c2nc3ccccc3s2)cc1 (stereo not drawn)
→ -0.3 | -0.91
COc1ccc(NC(=O)c2nc(-n3cnnc3)ccc2Br)cc1OC
→ 2.1 | /
O=C1CC(c2cccs2)CC2=C1C1c3ccccc3C(=O)N1c1ccccc1N2 (stereo not drawn)
→ 0.78 | 0.78
CCOC(=O)N1CCN(S(=O)(=O)c2ccc(-n3cnnn3)cc2)CC1
→ 0.09 | -0.58
Nc1c(-c2nc(-c3ccc4c(c3)OCO4)no2)nnn1-c1cccc(F)c1
→ -0.01 | /
CCNC(=O)C1CCN(c2ncnc3c2nc2n3CCCCC2)CC1
→ -0.53 | /
Cc1cc(Nc2ccc(OC(C)C)cc2)ncn1
→ 1.3 | -0.59
COc1ccc(-c2nnc(SCCOc3ccccc3)o2)cc1OC
→ 0.1 | -0.79
COC(=O)c1sc(N2C(=O)c3oc4cc(C)c(C)cc4c(=O)c3C2c2cccc(OC)c2)nc1C (stereo not drawn)
→ 0.94 | 0.15
O=C(CCCN1C(=O)c2ccccc2Sc2ncccc21)NCC1CCCO1 (stereo not drawn)
→ -2.3 | /
COc1ccc(CCN2C(=O)CSC2c2ccc(F)cc2)cc1OC (stereo not drawn)
→ 1.5 | -0.7
O=C(Nc1ccccc1F)c1cnc2sccn2c1=O
→ / | -3.3
Cn1nnnc1SCC1=C(C(=O)O)N2C(=O)C(NC(=O)C(OC=O)c3ccccc3)C2SC1 (stereo not drawn)
→ -0.89 | /
COc1ccc(OC)c(-n2c(SCC(N)=O)nnc2-c2c[nH]c3ccccc23)c1
→ / | -2
O=c1[nH]c(=O)n(Cc2c(Cl)cccc2Cl)cc1F
→ / | -2.1
COc1ccc(/C=C/c2nc3scc(-c4cccs4)c3c(=O)o2)cc1
→ -10 | -3.6
CCOC(=O)c1c(NC(=O)CN2CC(C)OC(C)C2)sc2c1CCC(C)C2 (stereo not drawn)
→ 0.85 | 0.02
COC(=O)CN1C(=O)CSc2ccc(S(=O)(=O)NCCC(C)C)cc21
→ 1 | /
CCN(Cc1ccccc1)c1ncnc2onc(-c3ccc(F)cc3)c12
→ 0.81 | /
O=S(=O)(c1ccc2c(c1)OCCO2)N1CCN(Cc2ccc3c(c2)OCO3)CC1
→ 1.3 | -0.28
Cc1ccc(OCc2cc(=O)n3c(-c4ccccc4)csc3n2)c(C)c1
→ 0.28 | -1.7
CCc1ccc(-c2cc(C)no2)cc1S(=O)(=O)Nc1ccccc1
→ 1.5 | /
Cn1c(=O)c2c(nc(CN3CCN(Cc4ccccc4)CC3)n2Cc2ccccc2Cl)n(C)c1=O
→ 2 | -1.1
O=C(O)/C=C/c1cnc[nH]1
→ / | -0.92

Looked up above:
Cn1cnnc1Sc1c(-c2ccccc2)c2ccccc2[nH]c1=O in TAR Tat displ shows -1.3
O=C(COC(=O)CCc1c[nH]c(=O)[nH]1)Nc1cccc(Cl)c1 in TAR Tat displ shows 1.2
O=C(Nc1ccccc1F)c1cnc2sccn2c1=O in CDC25B CDK2 inh shows -3.3
O=C(O)/C=C/c1cnc[nH]1 in CDC25B CDK2 inh shows -0.92
COc1ccc(CCN2C(=O)CSC2c2ccc(F)cc2)cc1OC (stereo not drawn) in TAR Tat displ shows 1.5
COc1ccc(OC)c(-n2c(SCC(N)=O)nnc2-c2c[nH]c3ccccc23)c1 in CDC25B CDK2 inh shows -2

Next records.
Each structure is followed by: TAR Tat displ | CDC25B CDK2 inh
Cc1nc(N2C(=O)c3oc4ccccc4c(=O)c3C2c2ccc(Br)cc2)sc1C (stereo not drawn)
→ -0.02 | -1.9
COc1ccc(-c2c(C)nn3c(C)cc(C)nc23)cc1
→ 1 | -2
COc1ccccc1NC(=O)CC1Sc2ccc(C(F)(F)F)cc2NC1=O (stereo not drawn)
→ / | 0.87
COc1cccc(NC2c3ccccc3C(=O)N2c2ccccn2)c1 (stereo not drawn)
→ 0.02 | -1
CCOC(=O)c1sc(NC(=O)c2ccco2)nc1C
→ -0.32 | -2.2
CCOC(=O)c1c(S(=O)(=O)NCC(=O)N2CCc3ccccc32)c(C)n(CC)c1C
→ 1.6 | /
CCOC(=O)c1c(NC(=O)CN2CCOCC2)sc2c1CCCC2
→ 0.91 | -1.4
Cc1sc2ncnc(SCC(=O)c3ccc(F)cc3)c2c1C
→ / | -6
CCn1c(SCC(=O)Nc2sc3c(c2C#N)CCC(C)C3)nnc1-c1cccs1 (stereo not drawn)
→ / | -1.4
Brc1cccc(CN2CCc3nc(N4CCN(c5ccccn5)CC4)ncc3C2)c1
→ 0.12 | /
O=S(=O)(NCc1cccs1)c1ccc(N2CCCCS2(=O)=O)cc1
→ 1 | /
O=C(Cn1c(=O)oc2cc(S(=O)(=O)N3CCCC3)ccc21)Nc1ccccc1Br
→ 1.9 | /
CCN1CCN(C(=O)C2CCN(C(=O)c3cc4sccc4n3C)CC2)CC1
→ / | -2.6
Cn1nc(C(F)(F)F)c(-c2ccccc2)c1/N=C/c1ccc[nH]1
→ / | -2.1
Cc1cc([N+](=O)[O-])ccc1-n1c(C)ccc1C
→ / | -2.9
CCCN1CCN(CCCNC(=O)C(C)N2C(=O)CCn3nc(C)cc32)CC1 (stereo not drawn)
→ 1.1 | /
COc1cc(OC)c(NC(=O)N2CCn3cccc3C2C(C)C)cc1Cl (stereo not drawn)
→ 0.06 | /
COC(=O)/C=C/c1cn(C2OCC(CO)C2O)c(=O)[nH]c1=O (stereo not drawn)
→ / | -2.4
O=C(OC1CC1(Cl)Cl)c1ccccc1 (stereo not drawn)
→ / | -0.87
CCCCSc1nnc2c(n1)OC(c1sccc1C)Nc1ccc(Br)cc1-2 (stereo not drawn)
→ / | -3.3

Structural class, those above containing a cyano group.
Each structure is followed by: TAR Tat displ | CDC25B CDK2 inh
CC1(C)CC(=O)c2c(SCCOC(=O)Nc3ccc(OC(F)(F)F)cc3)sc(C#N)c2C1
→ / | -1.8
CCn1c(SCC(=O)Nc2sc3c(c2C#N)CCC(C)C3)nnc1-c1cccs1 (stereo not drawn)
→ / | -1.4

Compound profiles (already shown). Order of screens: TAR Tat displ | CDC25B CDK2 inh
`Cc1cc([N+](=O)[O-])ccc1-n1c(C)ccc1C` reads / | -2.9
`O=S(=O)(NCc1cccs1)c1ccc(N2CCCCS2(=O)=O)cc1` reads 1 | /

Carrying on:
Each structure is followed by: TAR Tat displ | CDC25B CDK2 inh
CCOC(=O)Cn1c(SCCOc2ccccc2)nc2ccccc21
→ -0.77 | -0.49
C/C(=N/NC(=O)c1ccoc1C)c1cccc(NC(=O)c2ccc(Cl)cc2Cl)c1
→ / | -2.6
CN1CCN(CCCNC(=O)c2cc3n(n2)CC(C)(C(=O)NC2CCCC2)N(C)C3=O)CC1 (stereo not drawn)
→ 0.08 | /
O=C(Cn1cc(SCC(=O)N2CCc3ccccc32)c2ccccc21)N1CCCCC1
→ 0.56 | /
CC(Sc1ccsc1[N+](=O)[O-])C(=O)NCc1ccco1 (stereo not drawn)
→ 0.44 | 1.1
COc1cc(Nc2ncnc3onc(-c4cccc(OC)c4)c23)cc(OC)c1
→ 0.36 | /
c1ccc(Cc2nnc3n2N=C(c2ccccc2)CS3)cc1
→ -1 | -0.38
O=C1Nc2ccccc2/C1=C/c1ccc(CN2C(=O)c3ccccc3C2=O)o1
→ / | -3.2
O=C(C1CCN(c2ccc(-c3cccs3)nn2)CC1)N1CCN(c2ccc(Cl)cc2)CC1
→ 0.24 | /
Fc1cccc(-c2nnc3n2N=C(c2ccc(Cl)s2)CS3)c1
→ / | 0.54
CN(C)c1nc2n(c(=O)n1)CCS2
→ 1.2 | -1.5
Cc1noc2ncnc(N3CCN(Cc4ccccc4)CC3)c12
→ -0.12 | /
COc1ccc(OC)c(-n2nnc(S(=O)(=O)c3ccc(C(C)C)cc3)c2C)c1
→ 0.78 | -1.6
CCCc1cc(=O)n2nc(N3CCC(C(=O)NCCN4CCN(CC)CC4)CC3)sc2n1
→ 2.2 | -0.97
Cc1ccc(-c2cn3c4ccccc4nc3n2CCN2CCOCC2)cc1
→ 0.65 | 0.52
O=C1CC(c2nnc(Cc3cccc(Cl)c3)o2)CN1c1ccccc1 (stereo not drawn)
→ 1.2 | -1.5
C=CCNc1nc2c(c(=O)n(C)c(=O)n2C)n1CC(O)COc1ccc(OC)cc1 (stereo not drawn)
→ / | -1.9
CCCCS(=O)(=O)c1c(-c2ccccc2)c2cc(Cl)ccc2[nH]c1=O
→ / | -1
COc1cccc(Nc2ncc3c(n2)CCNC3)c1
→ 1.1 | -0.99
Nc1cc(=O)[nH]c2nnc(SCc3ccc(Br)cc3)n12
→ 1.8 | 0.4
NNC(=S)Nc1cc(C(F)(F)F)ccc1Cl
→ / | 1
COc1ccc(Cl)cc1-n1c(SCc2ccccn2)nnc1-c1cc2occc2n1C
→ -2.2 | /
Cc1nc(N2CCOCC2)nc(NCc2ccccc2)c1[N+](=O)[O-]
→ -0.53 | 0.02
Cc1ccc2c(c1)N(C)/C(=C/c1ccc3ccccc3[n+]1C)S2
→ -8.9 | 0.35
COC(=O)Cn1c(C(F)(F)F)nc2ccccc21
→ -0.44 | -0.68
Cc1cc(C)c2c(n1)sc1c(C)c3c(nc12)CCC3
→ / | -4.2
CCC(=O)N1c2ccc(S(=O)(=O)N3CCc4ccccc4C3)cc2CC1C (stereo not drawn)
→ 1.2 | /
CC1CN(C(=O)Cn2cc(SCC(=O)NCC3CCCO3)c3ccccc32)CC(C)O1 (stereo not drawn)
→ -3 | /
CN(C)C(=O)c1ccc2c(c1)nnn2C1CCN(C(=O)NC2CCCCC2)CC1
→ 1 | /
O=C(CSCc1cc(=O)n2ccsc2n1)Nc1ccccc1Cl
→ 0.71 | /
O=C(Nc1ccc(F)c(Cl)c1)c1nccnc1CO
→ 2 | -1.8
O=C(Nc1nnc(S(=O)(=O)N2CCOCC2)s1)C1CCCCC1
→ 1.2 | -0.81
CN1c2ccc(Cl)cc2C(=O)NC1c1ccc([N+](=O)[O-])s1 (stereo not drawn)
→ / | -2.2
